Mtb growth = M. tuberculosis H37Rv growth inhibitors, H37Rv strain (AID 1626); M. tuberculosis H37Rv growth inhibition; higher % means a stronger effect; inhibition, % at 10 µM, or IC50 in µM where a hit was titrated; 0.95% of 220,000 active;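 active = confirmed in a dose series; inconclusive = inhibition above 80% but not taken into the dose series; inactive = below 80% or under 30% at every dose of the series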;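 also: bacteria incubated seven days before Alamar blue readout; 0% = bacteria only wells and 100% = bacteria with antibiotic wells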
YopH PTP inh = inhibitors of Yersinia enterocolitica YopH tyrosine phosphatase; fluorescence Ex485/Em525; inhibition, %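 (about 10 µM by stock and volumes)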; 0.16% of 140,000 active; AID 898;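 active = inhibition of 50% or more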;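 also: controls were vehicle for no effect and minimum signal wells for full effect; inactives centre near -20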
Arbovirus anti = blocks arbovirus infection. inhibition, % at 10 µM. 0.37% of 200,000 active. arbovirus infection cell-based antiviral screen;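 active = inhibition from about 30%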;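 also: bluetongue infection of BSR cells; cell survival read as ATP light after 72 h; 0% = infected wells without compound and 100% = uninfected wells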
Mtb betalactam = beta-lactam sensitization of Mtb H37Rv. AID 434955. 0.27% of 330,000 active. M. tuberculosis H37Rv growth with meropenem, percent inhibition; hits of this screen are not shown here. inhibition, % at 25 µM;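 active = about 74% or more and at least 40 points above the plate without the antibiotic, then above 30% in a dose series; inconclusive = first-round hits that could not be retested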;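 also: growth measured after seven days incubation then overnight dye step; 0% = bacteria only wells and 100% = bacteria with antibiotic; twin plates without the antibiotic show which effects depend on it; some results filed as inactive read as strong as hits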
RecA intein inh = Mtb RecA intein splicing inhibition | 0.75% of 290,000 active | P9WHJ3 | cell-free RecA intein splicing, fluorescence | AID 2221 | inhibition, %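 (about 9 µM by stock and volumes)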; in the data active = inhibition above about 30%; inconclusive = no clear call, values can overlap the other calls;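 also: 0% = vehicle wells and 100% = reference inhibitor control wells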
Target sequence (P9WHJ3 whole entry, looked up): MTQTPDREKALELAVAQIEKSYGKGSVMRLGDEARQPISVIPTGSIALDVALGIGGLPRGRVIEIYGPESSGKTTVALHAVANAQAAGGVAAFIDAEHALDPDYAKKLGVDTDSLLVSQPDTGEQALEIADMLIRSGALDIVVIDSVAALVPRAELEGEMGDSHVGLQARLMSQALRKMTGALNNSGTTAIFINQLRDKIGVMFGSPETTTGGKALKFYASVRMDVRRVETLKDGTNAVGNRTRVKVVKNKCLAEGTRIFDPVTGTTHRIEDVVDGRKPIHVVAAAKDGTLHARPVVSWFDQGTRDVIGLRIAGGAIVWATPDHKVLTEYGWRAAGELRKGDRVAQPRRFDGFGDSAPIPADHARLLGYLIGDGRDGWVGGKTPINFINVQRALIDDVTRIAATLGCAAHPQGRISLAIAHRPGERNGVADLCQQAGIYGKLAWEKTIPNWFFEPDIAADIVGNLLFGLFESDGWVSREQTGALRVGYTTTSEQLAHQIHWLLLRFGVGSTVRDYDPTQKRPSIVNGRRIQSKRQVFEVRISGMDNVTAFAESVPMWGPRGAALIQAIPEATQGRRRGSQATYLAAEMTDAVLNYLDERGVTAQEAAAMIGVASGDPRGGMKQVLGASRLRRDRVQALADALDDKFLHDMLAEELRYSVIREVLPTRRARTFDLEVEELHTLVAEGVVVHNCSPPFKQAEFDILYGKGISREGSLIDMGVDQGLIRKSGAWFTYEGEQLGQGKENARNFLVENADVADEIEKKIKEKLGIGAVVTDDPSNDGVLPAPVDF
Arbovirus anti repeat = also measured in Arbovirus anti; calls as there; inhibition, %; measured here: 10K subset replicate screen; many hits read low in the repeat;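 first of two repeat runs on a subset; 0% = infected and 100% = uninfected wells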
* marks the source's active call; other numbers are inactive results; u = inconclusive; x = not tested or not shown.

SMILES | Mtb growth | YopH PTP inh | Arbovirus anti | Mtb betalactam | RecA intein inh | others
Cc1cccc(Nc2ncnc3c2cnn3Cc2ccccc2)c1 | 13% | x | -16 | 2 | 4.2
CC(=O)Nc1ccc(NC(=O)C2CCN(C(=O)C3CC(=O)N(c4ccc(C)cc4)C3)CC2)cc1 (stereo not drawn) | x | x | x | -3 | -2.3
Cc1ccc(C)c(C(=O)CN2Cc3ccccc3C2=O)c1 | -4% | x | x | -4 | 1.6
CN(CCC#N)CC(=O)Nc1ccc(NC(=O)CN(C)CCC#N)cc1 | -6% | 10 | -4 | 3 | 2.2
CCOc1cccc(CNCCc2c(C)[nH]c3ccc(OC(F)(F)F)cc23)c1O | x | x | x | 100 | 3.0
CCOC(=O)C(=O)Nc1ccc([N+](=O)[O-])cc1OC | -7% | -9 | 3 | -9 | 0.4
NC(=O)c1cccnc1Oc1ccc(Cl)cc1 | -5% | x | x | -5 | 0.2
O=C(CSc1nnc(Cc2ccccc2)c(=O)[nH]1)Nc1ccccc1 | x | x | x | 3 | -1.6
CCOC(=O)N1CCC(c2cc(=O)n3[nH]c(C)c(-c4ccc(F)cc4)c3n2)CC1 | x | -24 | 2 | 98 | -0.9 | Arbovirus anti repeat=-7
Cn1c(SCC(=O)NCc2ccco2)nnc1-c1ccc(S(=O)(=O)N2CCOCC2)cc1 | -2% | -35 | 4 | 3 | -3.1
CCOc1ccc(/C(O)=C2/C(=O)C(=O)N(c3cc(C)on3)C2c2ccc(C(=O)OC)cc2)cc1 (stereo not drawn) | -18% | 0 | 4 | -7 | -5.2
Cc1ccccc1NC(=S)NCc1ccc2c(c1)OCO2 | x | -9 | 4 | 0 | -0.2
CC(=O)NCCC(=O)Nc1cccc(S(=O)(=O)N(C)c2ccccc2)c1 | -1% | -11 | 9 | -6 | -1.1
CC1(C)CC(=O)c2c(n(S(=O)(=O)c3ccccc3)c3ccc(NS(=O)(=O)c4ccccc4)cc23)C1 | 3% | -4 | -3 | -11 | 12
Cc1cc(C)c([N+](=O)[O-])cc1NC(=O)CCSc1ccccc1Cl | 3% | -26 | 1 | -1 | -1.4
C[C@H]1[C@@H](OC(=O)CCC(=O)O)O[C@@H]2OC3(C)CC[C@H]4[C@H](C)CC[C@@H]1[C@@]24OO3 | -12% | x | x | 0 | 0.9
Cc1ccc(Cc2cnc(N3C(=N)SC(C)C3=O)s2)cc1 (stereo not drawn) | 3.6µM* | x | -26 | 90 | -5.3
N#Cc1c2c(nc(N)c1-c1ccccc1)CCCCC2 | -8% | -25 | 8 | 17 | -1.8
O=C(NC1CCCc2c1cnn2-c1ccc(F)cc1F)c1cnccn1 (stereo not drawn) | 1% | x | 6 | -7 | -0.5
C=CCOC(=O)/C(=C/c1cccnc1)NC(=O)c1ccccc1 | 2% | x | x | -7 | -0.8

Continued (7 carried over from the part before).
SMILES | Mtb growth | YopH PTP inh | Arbovirus anti | Mtb betalactam | RecA intein inh | others
CC1(C)CC(=O)c2c(n(S(=O)(=O)c3ccccc3)c3ccc(NS(=O)(=O)c4ccccc4)cc23)C1 | 3% | -4 | -3 | -11 | 12
Cc1cc(C)c([N+](=O)[O-])cc1NC(=O)CCSc1ccccc1Cl | 3% | -26 | 1 | -1 | -1.4
C[C@H]1[C@@H](OC(=O)CCC(=O)O)O[C@@H]2OC3(C)CC[C@H]4[C@H](C)CC[C@@H]1[C@@]24OO3 | -12% | x | x | 0 | 0.9
Cc1ccc(Cc2cnc(N3C(=N)SC(C)C3=O)s2)cc1 (stereo not drawn) | 3.6µM* | x | -26 | 90 | -5.3
N#Cc1c2c(nc(N)c1-c1ccccc1)CCCCC2 | -8% | -25 | 8 | 17 | -1.8
O=C(NC1CCCc2c1cnn2-c1ccc(F)cc1F)c1cnccn1 (stereo not drawn) | 1% | x | 6 | -7 | -0.5
C=CCOC(=O)/C(=C/c1cccnc1)NC(=O)c1ccccc1 | 2% | x | x | -7 | -0.8
CC1(C)CC(=O)C2=C(C1)OC(N)=C(C#N)C2c1ccccc1[N+](=O)[O-] (stereo not drawn) | -5% | x | 1 | -5 | -58
Cc1cccc(C)c1NC(=O)CNc1ncnc2sc(C)c(C)c12 | -1% | -33 | 2 | -2 | -4.5
Cc1ccc(-c2nnc(SCC(=O)Nc3nc4c(s3)CCCC4)n2C)cc1 | -4% | -48 | 4 | -6 | -0.9
CC1CCCCN1C(=O)c1cc(F)c(F)cc1Cl (stereo not drawn) | 3% | 4 | 2 | -7 | -1.4
CCCc1cc(=O)[nH]c(SCC(=O)N(C)Cc2ccccc2)n1 | 0% | -55 | 3 | -7 | 0.6
CC1=C(C(=O)OC(C)(C)C)C(c2cccs2)NC(=O)N1 (stereo not drawn) | 2% | -5 | 8 | -2 | 1.1
COc1ccc(OC)c(S(=O)(=O)NCC(c2ccc3c(c2)OCO3)N2CCOCC2)c1 (stereo not drawn) | x | x | x | -12 | -2.8
CN(C)S(=O)(=O)Oc1ccccc1C(=O)Nc1ccc(F)cc1 | 1% | x | -5 | -4 | -1.2
O=C1NCC(COc2cccc3ccccc23)O1 (stereo not drawn) | 2% | x | 4 | -5 | 1.0
O=C(CSc1nnc2c(n1)[nH]c1ccc(F)cc12)Nc1ccccc1F | x | x | x | 1 | 0.3
Cc1cc2ccccc2nc1SCC(=O)Nc1nc(-c2ccccc2)cs1 | -8% | -27 | -11 | -5 | -2.4
COc1ccc(CC(=O)OCC(=O)NC(=O)NC(C)C)cc1 | -10% | 8 | 4 | 5 | -1.5
CCn1c(COc2ccccc2C)nnc1SCC(=O)Nc1ccc2c(c1)OCCO2 | -16% | -32 | 9 | x | 4.5
CCn1c(C)nnc1SCC(=O)Nc1ccccc1Cl | x | x | x | -7 | -2.7
Cc1ccc(Cl)cc1N1CCN(S(=O)(=O)c2ccc3[nH]c(=O)ccc3c2)CC1 | x | x | x | 0 | 4.2
O=C(Nc1ccccc1)C1=C[C@@H](c2coc3ccccc3c2=O)C[C@@H](OCCCCO)O1 | 6% | x | -4 | -2 | -1.6
O=C(CC(SCCO)c1ccc2c(c1)OCO2)c1ccco1 (stereo not drawn) | 12% | -34 | -18 | 96 | -0.5
O=S(=O)(c1ccc(N2CCOCC2)nc1)N1CCOCC1 | 0% | -14 | -4 | -2 | 1.1
Cc1ccc(C(=O)C(C)OC(=O)c2nc(Cl)ccc2Cl)cc1 (stereo not drawn) | x | x | x | -8 | -1.4
Cc1ccc(C)c(CSc2nnc(CCN)o2)c1 | 1% | 12 | 6 | 1 | -4.6

By substructure, the compounds so far with a cyano group (3)
SMILES | Mtb growth | YopH PTP inh | Arbovirus anti | Mtb betalactam | RecA intein inh | others
CN(CCC#N)CC(=O)Nc1ccc(NC(=O)CN(C)CCC#N)cc1 | -6% | 10 | -4 | 3 | 2.2
N#Cc1c2c(nc(N)c1-c1ccccc1)CCCCC2 | -8% | -25 | 8 | 17 | -1.8
CC1(C)CC(=O)C2=C(C1)OC(N)=C(C#N)C2c1ccccc1[N+](=O)[O-] (stereo not drawn) | -5% | x | 1 | -5 | -58

Next section
SMILES | Mtb growth | YopH PTP inh | Arbovirus anti | Mtb betalactam | RecA intein inh | others
CCc1ccc(N(C(=O)CNC(=O)c2ccco2)C(C(=O)NC2CCCC2)c2ccncc2)cc1 (stereo not drawn) | x | x | x | -7 | 0.2
COc1ccc(/C=C(/NC(=O)c2ccccc2Cl)C(=O)O)cc1 | -2% | x | 8 | -2 | -5.1
c1ccc(COc2ccc(CN3CCN(c4ccccn4)CC3)cc2)cc1 | -5% | -18 | -19 | 99 | 4.7
Cc1cccc(CC(=O)NC2CCS(=O)(=O)C2)c1 (stereo not drawn) | x | x | x | -16 | 2.8
CS(=O)(=O)c1[nH]nc(-c2ccccc2)c1C#N | -10% | x | x | 2 | -2.2
O=C(NCCCN1CCOCC1)c1cc(-c2ccc3c(c2)OCO3)nc2ccccc12 | 5% | x | -6 | 1 | 0.8 | Arbovirus anti repeat=-2
COc1ccc(OC)c(CCNC(=O)c2cccc(NC(=O)C3=C(C)OCCS3)c2)c1 | x | x | x | 0 | 1.8
CCC(=O)Nc1nnc(Cc2ccccc2)s1 | 19% | 8 | -8 | -11 | -4.2
CCc1ccc(/C=N/NC(=O)c2ccccn2)cc1 | 19% | x | x | 99 | -2.7
COc1ccccc1NS(=O)(=O)c1cc(C(=O)NCc2ccco2)ccc1C | 3% | -14 | 4 | -24 | 3.6
COc1ccc(Cc2nnc(NC(=O)c3cccs3)s2)cc1OC | 3% | x | 25 | -2 | 0.2
CCOC(=O)C1CCN(C(=O)CN(c2ccc(OC)cc2)S(=O)(=O)c2c(C)nn(C)c2C)CC1 | 2% | x | 2 | -11 | 0.9 | Arbovirus anti repeat=0
CCN1CCN(C(=O)Cn2ncc3c([nH]c4ccccc43)c2=O)CC1 | x | x | x | 0 | -2.8
CCOc1ccccc1NC(=O)CCCc1nc2ccccc2c(=O)[nH]1 | 8% | -19 | -8 | -3 | 1.3
O=C(COC(=O)c1cc(=O)[nH]c2ccccc12)NC(=O)c1ccccc1 | x | x | x | -12 | -0.6
CC(=O)Nc1ccc(S(=O)(=O)Nc2ccc(C(=O)NCC(=O)O)cc2)cc1 | -4% | x | x | 1 | -2.9
CC(C)CNC(=O)COc1ncnc2sccc12 | -5% | x | 6 | 3 | x
COC(=O)c1ccc(COc2ccc(F)cc2)o1 | x | x | x | 2 | 1.7
COc1ccccc1N1CCN(C2CCCN(C(=O)c3ccsc3)C2)CC1 (stereo not drawn) | x | x | x | 17 | 0.9
O=C(NCC(=O)N(c1ccc2c(c1)OCCO2)C(C(=O)NC1CCCC1)c1ccco1)c1ccco1 (stereo not drawn) | -5% | -18 | -2 | -9 | -3.1
CCn1c(C)nc2cc(C(=O)N/N=C/c3ccc(O)c(O)c3O)ccc21 | 4% | x | -5 | x | 6.8
CC(=O)Nc1cc2nc(C)n(Cc3ccccc3[N+](=O)[O-])c2nc1C | x | x | x | -2 | 0.0
CCCC(C(=O)Nc1cc(S(=O)(=O)N2CCOCC2)ccc1OC)c1ccccc1 (stereo not drawn) | x | x | x | -8 | 0.6
COc1ccc(-c2noc(C3CCCN(C(=O)c4ccc(F)cc4)C3)n2)cc1 (stereo not drawn) | x | x | x | 6 | -1.9
CCOC(=O)CNC(=O)c1cn(C)c(=O)c2cc(OC)c(OC)cc12 | -7% | -14 | 2 | -2 | -1.4 | Arbovirus anti repeat=0
COc1ccc2c(c1)OC(O)(C(F)(F)C(F)F)CC2=O (stereo not drawn) | -2% | -44 | -11 | 65 | x
Cc1ccc(NC(=O)CSc2cn[nH]n2)cc1 | x | x | x | -1 | -0.4
Cc1cccc(N/C(=N/S(=O)(=O)c2ccccc2)c2ccccc2)n1 | x | x | x | 0 | -0.6
Cc1ccccc1NC(=S)NC(=O)/C=C/c1ccco1 | x | x | x | -20 | 5.0
Cc1ccc(CSc2nnc3c(n2)OC2(Nc4ccccc4-3)C(=O)Nc3ccc(F)cc32)cc1 (stereo not drawn) | 3% | -24 | 4 | 23 | 7.0
COC(=O)c1ccc(NC(=O)CSc2nnc(-c3ccncc3)n2N)cc1 | 1% | -59 | -1 | -4 | -2.4 | Arbovirus anti repeat=-1
Cn1c(=O)c2ncn(CC(=O)NCCOc3ccccc3)c2n(C)c1=O | -1% | -13 | 8 | 0 | 3.6
CC(C)CC(NC(=O)/C(=C/c1ccco1)NC(=O)c1ccc(Br)o1)C(=O)O (stereo not drawn) | x | x | x | -2 | 0.6
Cc1nn2c(NCCN(C)C)c3c(nc2c1-c1ccccc1)CCC3 | -3% | x | x | 99 | 4.5
CCOC(=O)c1c(S(=O)(=O)N2CCc3ccccc32)c(C)n(C)c1C | x | x | x | 2 | -0.7
CC1(C)CC(=O)C2=C(C1)N=c1s/c(=C/c3ccc(F)c(F)c3)c(=O)n1C2c1ccc(F)cc1 (stereo not drawn) | -11% | -39 | -14 | -2 | -5.0
CC(C)(C)NC(=O)Cn1cc(C#N)c2cc(Br)ccc21 | 3% | 6 | -8 | -2 | 0.9
COc1ccc(Cl)cc1C(=O)NNC(=S)NC(=O)c1cc(-c2ccccc2)nc2ccccc12 | x | 0 | -17 | 1 | -2.4
CCN(CCn1cccn1)C(=O)CC1C(=O)NCCN1CCc1ccccc1 (stereo not drawn) | x | x | x | u | -0.5
CCOc1ccccc1-n1c(O)c(C=Nc2c(C)n(C)n(-c3ccccc3)c2=O)c(=O)[nH]c1=O | -7% | -25 | -1 | 1 | -1.6
CCCCOC(=O)Cn1c(-c2ccccc2)nc2ccccc2c1=O | 7.7µM* | -36 | -3 | 97 | 0.2

Some of the compounds tested; count on the stated rates, not on these rows.
